# LANA-H2A inh = blocks KSHV LANA binding to histone H2A/H2B | cell-free LANA-H2A/H2B peptide, fluorescence polarization | 0.6% of 320,000 active | AID 2629 | Q9QR71 | inhibition, % (test concentration not listed); in the data active = inhibition mostly above about 10%, no sharp cut-off; inactive = mostly below about 6.7%;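 also: stock transfer was 7.5 nL into about 10 µL; 0% = median of vehicle wells and 100% = median of positive control wells; one replicate is shown; the record names a cut of 25% in any replicate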
# Target sequence (Q9QR71 whole entry, looked up): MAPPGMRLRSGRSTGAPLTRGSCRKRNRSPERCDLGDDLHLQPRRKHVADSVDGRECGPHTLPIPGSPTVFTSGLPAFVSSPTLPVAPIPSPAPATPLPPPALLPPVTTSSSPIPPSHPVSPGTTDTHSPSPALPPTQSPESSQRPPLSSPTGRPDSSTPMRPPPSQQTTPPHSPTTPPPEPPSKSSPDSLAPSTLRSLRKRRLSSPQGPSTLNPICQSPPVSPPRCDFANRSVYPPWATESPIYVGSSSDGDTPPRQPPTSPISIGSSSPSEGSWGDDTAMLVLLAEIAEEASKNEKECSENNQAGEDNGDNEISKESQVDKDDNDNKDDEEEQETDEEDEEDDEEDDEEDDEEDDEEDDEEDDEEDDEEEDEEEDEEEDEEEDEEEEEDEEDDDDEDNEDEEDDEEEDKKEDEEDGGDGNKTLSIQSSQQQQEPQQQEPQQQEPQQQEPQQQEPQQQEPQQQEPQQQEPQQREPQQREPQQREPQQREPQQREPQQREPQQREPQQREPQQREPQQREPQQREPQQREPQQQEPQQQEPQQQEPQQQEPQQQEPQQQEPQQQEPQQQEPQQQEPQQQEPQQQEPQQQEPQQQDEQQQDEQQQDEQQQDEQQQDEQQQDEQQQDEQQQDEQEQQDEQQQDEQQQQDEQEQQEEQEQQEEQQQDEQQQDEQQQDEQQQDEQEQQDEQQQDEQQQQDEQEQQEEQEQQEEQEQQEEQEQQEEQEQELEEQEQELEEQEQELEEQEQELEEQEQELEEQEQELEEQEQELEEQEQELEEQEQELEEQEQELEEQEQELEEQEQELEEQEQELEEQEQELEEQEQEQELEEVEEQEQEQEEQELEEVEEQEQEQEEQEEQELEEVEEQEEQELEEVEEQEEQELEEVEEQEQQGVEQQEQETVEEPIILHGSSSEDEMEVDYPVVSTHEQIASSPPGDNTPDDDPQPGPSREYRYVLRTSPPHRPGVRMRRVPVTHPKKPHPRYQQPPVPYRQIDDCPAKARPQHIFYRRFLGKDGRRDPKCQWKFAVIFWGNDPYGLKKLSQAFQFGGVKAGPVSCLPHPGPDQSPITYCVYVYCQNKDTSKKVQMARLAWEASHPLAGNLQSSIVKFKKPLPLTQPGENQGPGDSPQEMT
# ALR H2O2 inh = blocks human ALR sulfhydryl oxidase activity; P55789; AID 485317; purified ALR, DTT oxidation, H2O2 HRP-luminol luminescence; inhibition, % (concentration not given with the values); 3.8% of 290,000 active;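 active = mean and each replicate at 75% or more; inconclusive = only one of the two met; inactive = neither met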;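 also: stock transfer was 7.5 nL into about 7.5 µL; 0% = neutral wells and 100% = wells with inactivated enzyme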
# Calb FLC = affects C. albicans growth with fluconazole; 0.57% of 300,000 active; growth inhibition, % (concentration not given with the values); C. albicans CaCi-2 (fluconazole-resistant clinical isolate) + fluconazole, Alamar Blue growth, 48 h;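 active = most replicates above 75%; inconclusive = exactly half above 75%; inactive = most below 75%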;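 also: all wells also contain fluconazole at 8 µg/ml as a sub-toxic cotreatment; 0% = median of DMSO wells and 100% = median of geldanamycin control wells; wells of about 8 µL received 7.5 nL stock; the first replicate is given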
# RanGTP-Impb inh = disruptors of Ran-importin-beta complex formation – biochemical, FRET, CFP-Ran, YFP-importin-beta, homogeneous, primary screen; cell-free CFP-Ran/YFP-importin-beta FRET ratio; inhibition, % (test concentration not listed); 1.1% of 300,000 active;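 active = most replicates above 15%; inconclusive = exactly half above 15%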;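 also: 0% = DMSO wells and 100% = Ran loaded with GDP instead of GTP; wells of about 40 µL received 100 nL stock; the first replicate is given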
# HNF4A DNA FP = change in binding of human HNF4 alpha to DNA | P41235 | HNF4a-FITC DNA binding, fluorescence polarization, 1 h | activity change, % at 10 µM | 0.3% of 360,000 active; in the data active = activity change above about 30%, passing the limit was not always enough;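 also: controls were the assay level and a saturating level of protein; the project sought stronger binding though the title names inhibitors; some compounds called inactive have numbers as strong as hits; positive values seem to mean higher polarization but the record does not say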
# Vif TR-FRET = inhibitors of Vif binding to APOBEC3G peptide, primary screen, biochemical, TR-FRET, GST-Vif 1-94, biotin-A3G peptide, dose response retest (AID 1117319). TR-FRET GST-Vif / biotin-A3G peptide binding; higher % means a stronger effect; test concentration not given here; strong numbers were not always called active. inhibition, %, or IC50 in µM where a hit was titrated. 0.57% of 260,000 active;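 active = above the screen mean plus three standard deviations and confirmed in dose response; inconclusive = results disagree or hit not tested in dose response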;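 also: Vif residues 1-94 fused to GST binding biotinylated APOBEC3G peptide 110-148; 0% = full assay without inhibitor and 100% = GST in place of GST-Vif; retest series ran down from 100 µM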
# B2AR ag = agonists of human beta-2 adrenergic receptor inducing internalization; AID 504454; Am2.2-beta2AR cells, FAP receptor internalization, flow cytometry; reference of the scale not given here; P07550; 0.43% of 340,000 active; response, % (concentration not given with the values);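 active = response above a set limit, near 3 SD of response in nonfluorescent compounds, cut at about 42% in these data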;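 also: stock transfer was 100 nL into about 11 µL; a reference agonist was the positive control; negative values mostly stem from fluorescent compounds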
# Active calls of the source: *; ? = inconclusive; / = no result given.
canonical_smiles	LANA-H2A inh	ALR H2O2 inh	Calb FLC	RanGTP-Impb inh	HNF4A DNA FP	Vif TR-FRET	B2AR ag
Cc1cc(C)n2cc(CSc3nnnn3-c3ccc(Cl)cc3)nc2n1	-2.5	1	/	/	-1.2	?	-11
N=c1c(C(=O)NC2CCCC2)cc2c(=O)n3ccccc3nc2n1CCCN1CCOCC1	0.5	/	-4	140*	0.6	/	-10
CCc1ccc(S(=O)(=O)N2CCN(c3ncccn3)CC2)cc1	-5.3	-4	-3	5.7	-1.5	-5%	-6
O=C(CCCc1nc2ccccc2s1)NNC(=O)CCN1CCN(Cc2ccccc2)CC1	0.1	-12	14	2.0	0.2	0%	0
Cc1cccc(OC(=O)CN2C(=O)C3C4CCC(C4)C3C2=O)c1C (centres undefined)	1.4	-11	-9	-2.2	-0.8	1%	6
O=C(OCC(=O)c1ccc[nH]1)c1ccc(Br)cc1	0.7	-3	/	/	1.8	6%	4
COc1ccc(CCN2C(=O)CC(C(N)=O)SC2=Nc2ccccc2)cc1 (centres undefined)	-4.5	/	13	-1.0	-2.7	10%	-2
O=C(NCC1CCCO1)C(=O)NCC(c1ccco1)N1CCN(c2ccccc2F)CC1 (centres undefined)	0.5	-1	-1	1.4	-0.8	27%	-4
N#Cc1cccc(NC(=S)Nc2ccccc2)c1	0.7	42	-12	0.7	0.7	-3%	7
O=C(CCN1CCN(c2ccccc2F)CC1)Nc1ccccc1F	-5.4	2	-9	1.4	1.5	-3%	-5
NC(=O)COC(=O)c1ccc(Cl)c(S(=O)(=O)N2CCCCCC2)c1	-6.7	-3	?	0.6	1.6	-8%	-5
O=C1CCC(=O)N1c1ccc(CSc2nc3ccccc3[nH]2)cc1	-0.6	99*	5	-3.4	-1.5	-7%	-5
CCCCC(=O)NS(=O)(=O)c1ccc(N=NN2CCOCC2)cc1	-3.2	0	1	-0.3	4.2	/	2
CCCCSc1nnc(-c2ccc(C)cc2)o1	-4.7	-30	-12	-2.0	2.2	7%	0
CCOC(=O)c1[nH]c2cc(OC)c(OC)cc2c1NC(=O)CN(C)C1CCCCC1	-1.5	97*	9	-1.0	-2.1	-2%	11
COc1ccccc1N1CCN(S(=O)(=O)c2c(C(=O)N3CCOCC3)c(C)n(C)c2C)CC1	0.4	17	-5	-0.3	2.8	/	3
Cc1ccc(-c2nc3cc(N)ccc3o2)cc1Br	1.5	66	1	8.0	-4.8	/	1
O=C(Nc1ccnn1C1CCN(Cc2ccc(CO)o2)CC1)c1ccccc1	-8.4	2	-5	4.2	1.1	/	3
Nc1c(C(=O)O)sc2nc(-c3ccccc3)cc(-c3ccc(Cl)cc3)c12	-0.5	7	-4	-2.0	6.8	/	21
CN(C(=O)CN1C(=O)S/C(=C\c2ccc(F)cc2)C1=O)C1CCS(=O)(=O)C1 (centres undefined)	-0.7	-4	6	1.7	-7.1	/	5
COc1ccc(C(=O)Oc2coc(CSc3nnc(NC(=O)c4cccs4)s3)cc2=O)cc1	-7.8	-1	-13	0.1	-13	30%	-8
O=C(CCn1ccc2cc(S(=O)(=O)N3CCCC3)ccc21)NCCc1ccccc1	0.3	-8	-8	0.6	5.0	/	-655
O=C(CN1CCOCC1)NC1CC2CCC1C2 (centres undefined)	2.4	1	11	-1.1	-15	-1%	-2
COCCCNC(=O)CCc1nnc(Cc2ccc(-c3ccccc3)cc2)o1	2.3	/	20	6.2	1.8	-6%	-6
C/C(=N\NC(=O)Cc1csc(N2CCOCC2)n1)c1ccccc1	3.8	4	2	5.9	-1.6	25%	-2
CC(C)CCN1CCN(Cc2coc3ccccc3c2=O)CC1CCO (centres undefined)	-6.5	/	2	1.7	-4.3	/	4
CCc1noc(C)c1C(=O)N(CCC(C)C)c1c(N)n(Cc2ccccc2)c(=O)[nH]c1=O	-2.4	3	-5	1.6	0.2	/	-2
Cc1csc(Cn2c(CN(C)C)nc3ccccc3c2=O)n1	-1.7	4	11	-3.8	0.2	-8%	1
C=CCNc1nc2ccccc2nc1NS(=O)(=O)c1ccc(F)cc1	3.1	0	18	0.6	-0.3	-4%	8
Cc1[nH]nc2nc3c(c(OC(=O)c4ccccc4)c12)c(=O)n(C)c(=O)n3C	-7.6	/	2	-4.0	/	?	/
CC1CCN(c2c(NCc3ccc(C(=O)N(C)C4CCCCC4)cc3)c(=O)c2=O)CC1	/	/	4	-4.7	1.0	-1%	4
CCOC(=O)C1=C(COC(=O)CNC(=O)c2cc(OC)c(OC)c(OC)c2)NC(=O)NC1C (centres undefined)	-0.9	-2	10	-5.1	-1.4	5%	4
C#Cc1ccc([C@H]2C=C(C(=O)O)O[C@@H](OCc3ccc(CO)cc3)C2)cc1	6.3	/	-6	-1.7	-2.4	-1%	-5
Cc1ccc(-c2noc(CCC(=O)Nc3cccc(C#N)c3)n2)cc1	-5.9	-19	-19	-1.2	-0.7	2%	-2
O=C(CONS(=O)(=O)c1ccc(Cl)cc1)NCCNc1ncc(C(F)(F)F)cc1Cl	-3.8	-6	17	2.0	5.2	13%	-9
COC(=O)C1CCN(C(=O)COC(=O)CNC(=O)c2ccc(Cl)cc2Cl)CC1	1.5	-4	/	/	0.6	19%	10
CC(=O)Nc1ccc2oc(-c3ccccc3)nc2c1	3.5	70	-20	4.0	-1.8	-7%	-3
CC(CNC(=O)CCc1nnc2ccc(N3CCC4(CC3)OCCO4)nn12)c1ccccc1 (centres undefined)	3.9	-9	2	3.1	2.3	/	2
Nc1c(O)ccc2c1C(=O)c1ccccc1C2=O	1.6	99*	23	-7.2	/	10%	/
CC1=NN(C(N)=S)C(=O)C1N=Nc1ccc([N+](=O)[O-])cc1 (centres undefined)	1.5	79*	0	-2.9	3.8	-6%	3
CN(C)S(=O)(=O)c1ccc(N2CCCC2)c(C(=O)NCC2CCCO2)c1 (centres undefined)	-1.5	/	-1	0.7	1.2	-6%	-15
CCOc1cc(CNC2CCCC2)ccc1OCc1ccccc1Cl	-5.2	2	-4	0.9	4.3	-2%	4
O=C1c2ccccc2C(=O)c2c1cccc2N1CCN(CCO)CC1	8.0	-38	-21	-20	-15	-4%	-1
COc1ccc(-n2nnnc2SCC(=O)c2cc3ccccc3o2)cc1	1.3	-5	-1	-1.3	3.2	-3%	-3
CCNC(=O)CC1C(=O)N(c2ccc(C)cc2)C(=O)N1CCc1sccc1C (centres undefined)	-0.2	0	-7	-1.6	-1.3	5%	4
O=C(NCc1ccccc1)C1CCCN1C(=O)Nc1ccccc1[N+](=O)[O-] (centres undefined)	0.2	-4	3	0.2	3.4	/	-2
COc1ccc(NC(=O)O/N=C/c2ccc(N(C)C)cc2)cc1	4.4	49	-6	-1.5	-1.7	3%	1
CC(C)=C1C2CCC1C1C(=O)N(c3nc(-c4ccccc4)c(C)s3)C(=O)C21 (centres undefined)	3.3	-12	?	0.8	-0.8	/	-9
Cc1cccc(NC(=O)Cc2noc3ccccc23)c1C	1.8	-6	-11	1.8	-3.2	-1%	-1
O=C(CCS(=O)(=O)Cc1ccccc1)NCC1CCCO1 (centres undefined)	0.1	-4	5	-2.4	3.5	5%	4
O=C(c1cn(-c2ccccc2)nc1-c1cc2ccccc2oc1=O)N1CCOCC1	1.7	-5	60	-2.6	3.0	-10%	-37
Cc1nc2cccc(C(=O)NC3CCCCC3)c2o1	-0.2	14	20	-2.2	-2.0	16%	-3
O=c1c2c(nc3cc(-c4ccccc4Cl)[nH]n13)CCS2	-0.7	38	-8	-11	-5.1	-9%	-2
CSc1cc(C)[nH]c(=O)n1	-3.6	-16	-5	-0.6	1.2	-2%	6
Cc1ccc(CN2CCCN(Cc3cc(C)ccc3C)S2(=O)=O)cc1	-0.2	/	-1	1.3	1.4	-6%	2
CCCCN(C)CCNC(=O)Cn1c(=O)sc2ccccc21	-1.5	-16	3	0.2	-2.9	3%	7
N#Cc1cc(Oc2ccc3ccccc3c2)c(-n2nnc3ccccc32)cc1C#N	-8.9	-4	16	0.5	62*	12%	48*
O=C(NC(=S)N1CCCCC1c1cccnc1)c1ccc(F)cc1 (centres undefined)	2.6	4	2	19*	5.1	/	-8
Cn1c(SCC(=O)Nc2ccccc2Br)nnc1-c1cnccn1	2.8	33	2	5.4	2.9	-1%	-3
COc1ccc2oc(C(=O)OCC(=O)Nc3cc(S(=O)(=O)N4CCOCC4)ccc3C)c(C)c2c1	3.2	-2	3	1.4	-3.3	-6%	-2

# Remaining list, next part.
canonical_smiles	LANA-H2A inh	ALR H2O2 inh	Calb FLC	RanGTP-Impb inh	HNF4A DNA FP	Vif TR-FRET	B2AR ag
Cc1cc(C(=O)N(C)CC(=O)Nc2ccc(Cl)c(C(F)(F)F)c2)no1	2.7	-1	-5	3.4	1.8	-5%	-2
CN1C(C(=O)NCc2ccc(OC(F)(F)F)cc2)CC2Cn3c(nc4cc(Cl)c(Cl)cc43)C21 (centres undefined)	-1.8	/	4	-0.8	-0.6	/	0
O=S(=O)(NCc1ccccc1)c1ccc(NC(=S)NCc2ccco2)cc1	1.6	-13	10	-2.0	6.9	/	5
O=[N+]([O-])c1ccc(Sc2ccc(Cl)c(Cl)c2)nc1	-0.8	12	14	3.5	2.2	1%	-2
O=C(NN1CC(=O)N(c2cc(Cl)cc(Cl)c2)CC1=O)c1sccc1Cl	1.2	/	-1	4.1	0.9	/	-4
Cc1cc(OCC(=O)Nn2cnnc2)c(C)cc1Br	-6.2	-2	1	-0.2	-0.6	-1%	2
O=C(Nc1ccc(Cl)c(S(=O)(=O)N2CCCCC2)c1)c1ccco1	2.5	-4	/	/	5.8	-7%	-3
COc1ccccc1NC(=O)c1oc2ccccc2c1NC(=O)C1CC1	-1.3	2	4	1.4	-3.1	-4%	-12
O=C1/C(=C/c2ccc([N+](=O)[O-])cc2)Oc2cc(O)ccc21	0.7	14	22	-7.5	5.7	/	16
CCOc1ccc(-c2ccc(SCC(=O)N3CCN(c4ccccc4)CC3)nn2)cc1	0.0	0	2	-8.3	/	/	/
CCOC(=O)N1CCc2c(sc3c2c(=O)n(Cc2ccccc2)c(=O)n3CC(=O)NCCOC)C1	-0.4	-12	-11	1.0	-1.2	-2%	-3
CCN(CC)CCCN(Cc1cc2cc3c(cc2[nH]c1=O)OCO3)C(=S)Nc1ccccc1OC	3.0	-11	5	-22	-0.4	/	3
CCN(CCNC(=O)C1CCN(S(=O)(=O)c2c(C)noc2C)CC1)c1ccccc1	-3.4	?	44	1.6	3.7	-5%	-4
Cc1nc2ccc(CN(C)c3ccc(C(=O)N[C@@H](CCC(=O)O)C(=O)O)s3)cc2c(=O)[nH]1	-3.7	-21	/	1.4	/	/	/
COc1ccc(OC)c2sc(NNC(=O)C3COc4ccccc4O3)nc12 (centres undefined)	1.4	14	29	/	2.0	9%	3
O=C(NCCC1CCCCN1S(=O)(=O)c1ccc(F)cc1)C(=O)NCc1ccccn1 (centres undefined)	-0.1	-4	1	1.6	1.0	60%	2
CCN(CC)S(=O)(=O)c1cccc(NC(=O)CN(C)C2CCCCC2)c1	1.1	/	20	0.3	1.1	1%	2
Cc1ccc(C)c(NC(=S)c2nc3ccccc3s2)c1	-4.9	-22	-2	1.6	-4.3	4%	11
COc1ccc(-c2nn(-c3ccccc3)cc2CO)cc1	2.3	5	3	3.1	-3.2	7%	-5
CCS(=O)(=O)Nc1cccc(-c2ccc3nnc(C)n3n2)c1	-2.5	-7	-21	-0.1	/	-3%	/

# Screening results: PubChem, several laboratories
